Vaccinia mCherry: qHTS for Stage-Specific Inhibitors of Vaccinia Orthopoxvirus: mCherry Reporter Primary qHTS | Vaccinia virus mCherry reporter infection, fluorescence; about a quarter of the inactives have no number | Potency, µM (series often up to 36.5 µM), for the others: at the highest dose activity change, negative = inhibition, actives largely listed as inhibitors | actives 0.63% (n = 310,000) | AID 720579, 2013; active = well fitted inhibition curve with a large enough effect; inconclusive = small, poorly fitted or top-dose-only effect; inactive = no such curve, though single readings can be large or run the other way; tested in A549 cells; further: nearly all actives have a fitted effect of over 35% in size; inactives centre near -10
Vaccinia Venus: qHTS for Stage-Specific Inhibitors of Vaccinia Orthopoxvirus: Venus Reporter Primary qHTS; Potency, µM (top dose mostly 36.5 µM), for inactives: at the highest dose activity change, negative = inhibition, usual class: inhibitors; actives 0.46% (n = 330,000); Vaccinia virus Venus reporter expression, fluorescence; active means well fitted inhibition curve with a large enough effect; inconclusive means small, poorly fitted or top-dose-only effect; inactive means no such curve, though single readings can be large or run the other way; tested in A549 cells; further: nearly all actives have a fitted effect of over 30% in size; inactives centre near -10
An asterisk follows results filed as active; i = inactive; ? = inconclusive; . = not tested or not shown; & = joins results of further samples; [ ] = dose if it differs, or a comment. On the % scale 0 is the no-effect control and ±100 the full control effect; potency means the concentration at half of the fitted maximal effect. Outcome played no part in choosing rows; 0.87% or so of the library scored in one or more.

SMILES	Vaccinia Venus	Vaccinia mCherry
O=C(NCCN1CCNC1=O)C1CCC(=O)N(Cc2ccccc2F)C1 (configuration not stated)	-6%	-8%
CCOC(=O)c1c(C)[nH]c(C(=O)OCC(=O)N(C)CC(=O)Nc2ccccc2Cl)c1C	-18%	3%
CC1(C(=O)NS(=O)(=O)c2ccc(Br)cc2)CCN1C(=O)Cc1cccs1 (configuration not stated)	2%	53%[activator]
CCCCNC(=O)C[C@@H]1C[C@@]2(C(=O)OCC)CCC=C2N(Cc2ccc(Cl)cc2Cl)C1=O	-6%	i
CC(C)C[C@H]1CN=C(Nc2ccccc2)N1CCC(C)c1ccccc1 (some centres not stated)	-20%	-23%
CCC(=O)N1CCC1(C)C(=O)Nc1cccc(OC)c1OC (configuration not stated)	-5%	i
COCCNC(=O)C1(C)CCCN(Cc2ccc3ccccc3c2Br)C1 (configuration not stated)	-3%	i
O=C(Nc1ccc2c(c1)OCO2)c1cnn2c(C(F)(F)F)cc(-c3ccco3)nc12	2%	.
O=C(O)c1c(-c2ccccc2)cnc2ccccc12	-13%	-18%
CC1=C(C(=O)N(C)C)CC(CC(=O)NC2CCCCC2)C(=O)N1Cc1ccccc1 (configuration not stated)	-22%	-18%
O=C(O)c1ccc(N/N=C/C2=C(N3CCOCC3)C(=C\c3ccccc3)/CC2)cc1	20%	?
O=C(Nc1ccc(OCc2cc(=O)n3c4c(sc3n2)CCCC4)cc1)c1cccc(F)c1	-3%	-5%
Nn1c(-c2cccs2)nc2sc3c(c2c1=O)CCCC3	?	-11%
CC1CCCN(c2ccc(C(=O)NCCc3ccccc3)cn2)C1 (configuration not stated)	-25%	-11%
CCOC(=O)CC1C(=O)NCCN1S(=O)(=O)c1cc(Cl)c(Cl)cc1Cl (configuration not stated)	-23%	?
O=[N+]([O-])c1ccc(C[n+]2c(-c3ccccc3)cc(-c3ccccc3)cc2-c2ccccc2)cc1	-5%	i
CN1c2ccccc2C(C)(C)[C@]12C=Cc1cc(O)ccc1O2	65%[activator]	.
COc1cc(Cl)c(S(=O)(=O)NCc2cccnc2)cc1Cl	-11%	-2%
O=C(C1=NNCC1c1ccccc1)C1OC1c1ccccc1 (configuration not stated)	-8%	-25%
Nn1c(SCC(=O)Nc2nccs2)nnc1-c1ccccn1	-6%	i
O=C(CCC(=O)N1CC2CCCN2c2ccccc21)NCc1ccccc1Cl (configuration not stated)	-14%	-1%
CCOc1cccc(C2C(C(=O)c3ccc(C)o3)=C(O)C(=O)N2c2nccs2)c1 (configuration not stated)	1%	-9%
O=C(Cc1ccc(-c2ccccc2)cc1)N1CCOCC1	-10%	i
C=CCn1c(Cc2ccccc2)nnc1SCc1nc2ccccc2c(=O)[nH]1	-17%	-17%
COC(=O)Nc1ccccc1C(=O)N1CCN(c2ccc(C)cc2)CC1	-17%	-21%
COc1ccc(C2=NO[C@@H]3[C@@H]4C[C@@H]([C@H]5C(=O)N(C)C(=O)[C@@H]45)[C@H]23)c(OC)c1	13%	4%
COC(=O)C12OCC34C(CC5C(C)=C(O)C(=O)CC5(C)C3C(O)C1O)OC(=O)C(OC(=O)/C=C(\C)C(C)C)C24 (configuration not stated)	1.3µM*	?
Cc1[nH]ccc2c1[nH]c1cc(=O)ccc12	-26%&-13%	?
CC(=O)N1CCCc2cc(S(=O)(=O)CCC(=O)N3CCN(c4cccc(C)c4)C(C)C3)ccc21 (configuration not stated)	-14%	-2%
Nc1nc2ccccc2n1/N=C/c1ccc(Br)cc1	-24%	-3%
CCOC(=O)c1cc(-c2ccc(Cl)cc2)nc2c1c(=O)[nH]c(=O)n2CCOC	-13%	-5%
Cc1ccsc1/C=N\Nc1cn[nH]c(=O)c1Cl	-12%	?
COC(=O)c1cn(CC(=O)Nc2ccc(F)cc2)c2ccccc12	-9%	-7%
COc1cccc(N(C(=O)CNC(=O)c2ccco2)C(C(=O)NC2CCCCC2)c2cccnc2)c1 (configuration not stated)	-5%	-6%
CCCCc1cn([C@@H](CCCCN)C(=O)N2CCNCC2)nn1	-4%	i
Cc1ccnc(NC(=O)CCS(=O)(=O)c2ccccc2)c1	2%	26%
CC(C)Cn1c(N)cc(=O)n(C)c1=O	10%	i
CSc1nc2nc(-c3ccccc3)cc(=O)n2[nH]1	-8%	-12%[1.46 µM]
CN1N=C(C(=O)N2CCCC(Nc3ccc(F)c(F)c3)C2)CCC1=O (configuration not stated)	-11%	-8%
CCOc1ccccc1C(=O)NC1(C(F)(F)F)C(=O)Nc2c1c(=O)[nH]c(=O)n2-c1ccccc1 (configuration not stated)	-9%	-11%

Record cards, as listed above. Order of screens: Vaccinia Venus, Vaccinia mCherry
CC1=C(C(=O)N(C)C)CC(CC(=O)NC2CCCCC2)C(=O)N1Cc1ccccc1 (configuration not stated) is entered as -22%, -18%
CCOC(=O)c1cc(-c2ccc(Cl)cc2)nc2c1c(=O)[nH]c(=O)n2CCOC is entered as -13%, -5%

Back to the main list; the 6 compounds before the break are reprinted first.
SMILES	Vaccinia Venus	Vaccinia mCherry
CCCCc1cn([C@@H](CCCCN)C(=O)N2CCNCC2)nn1	-4%	i
Cc1ccnc(NC(=O)CCS(=O)(=O)c2ccccc2)c1	2%	26%
CC(C)Cn1c(N)cc(=O)n(C)c1=O	10%	i
CSc1nc2nc(-c3ccccc3)cc(=O)n2[nH]1	-8%	-12%[1.46 µM]
CN1N=C(C(=O)N2CCCC(Nc3ccc(F)c(F)c3)C2)CCC1=O (configuration not stated)	-11%	-8%
CCOc1ccccc1C(=O)NC1(C(F)(F)F)C(=O)Nc2c1c(=O)[nH]c(=O)n2-c1ccccc1 (configuration not stated)	-9%	-11%
CCOC(=O)c1cc(-c2ccccc2)n(CCC(=O)NCCc2ccc(C)cc2)c1C	-16%	-15%
Cn1c(-c2ccc(C=O)s2)nc2ccccc21	-11%	.
O=C(NC1CCCCC1)NC1CCCCC1	-13%	i
COc1cc(Nc2nc(SCC(=O)c3ccc(Br)cc3)nc3ccccc23)cc(OC)c1	?	?
O=C(COc1ccccc1Cl)Nc1nc(-c2ccc(F)cc2)ns1	-10%	-3%
Clc1ccc(Cn2ncc3c(NCCN4CCOCC4)ncnc32)cc1	?	.
O=[N+]([O-])c1ccccc1OCC(O)CNC1CCCC1 (configuration not stated)	-3%	?
C[C@@H](C(=O)N=c1sc2ccccc2n1C)N1C(=O)C2CC=CCC2C1=O (some centres not stated)	9%	-10%
COc1ccc(C(=O)Nc2cc(-c3nn4c(C)nnc4s3)ccc2C)cc1	-4%	0%
CC(=O)Nc1cccc(NC(=O)C2CCCN2C(=O)Nc2ccccc2C)c1 (configuration not stated)	-9%	-11%
CCC1CCCCN1CC(=O)c1ccc(OC(F)F)cc1 (configuration not stated)	2%	-6%
O=C(CCc1nc2ccccc2c(=O)[nH]1)Nc1nnc(SCc2ccc(F)cc2)s1	-6%	-10%
C=CCn1c(SCC(=O)NCc2ccco2)nnc1-c1cccc(N(C)C)c1	-20%	-14%
CCOc1ccc2nc(SCC(=O)N(CCOC)c3c(N)n(Cc4ccccc4)c(=O)[nH]c3=O)[nH]c2c1	-11%	-16%
O=C(CCCN1C(=O)/C(=C\c2cccs2)SC1=S)Nc1cccnc1	-4%	i
CCOC(=O)/C=c1\s/c(=C\c2ccc3cc(OC)ccc3c2)c(=O)n1CC(=O)NCC1CCCO1 (configuration not stated)	-22%	.
C#CCOc1ccc(Cl)cc1/C=C1/C(=O)ON=C1C	-9%	4%
COC(=O)CSC1=C(C#N)C(c2ccc(C)o2)CC(=O)N1 (configuration not stated)	-25%	-3%
CC(C)COc1ccc(C(=O)N2CCN(CCc3ccncc3)CC2)cc1	3%	i
Cc1c(Cl)cccc1NC(=O)Nc1nnc(N(C)Cc2ccccc2)s1	-2%	-11%
O=C(c1nc(SCc2ccc([N+](=O)[O-])cc2)n2ccccc12)C(F)(F)F	-15%	-3%
COc1cc(OC)cc(-c2nnc(SCC(=O)N3CCC(C)CC3)o2)c1	-8%	-15%
Nc1cc(OC(=O)c2ccccc2Br)nn1S(=O)(=O)c1ccccc1	-20%	-8%
Cn1cc(S(=O)(=O)NC[C@H]2O[C@@H](n3ccc(=O)[nH]c3=O)[C@H](O)[C@@H]2O)cn1	-10%	-6%
CN1C(=O)CC(Nc2cccc3cccc(N)c23)C1=O (configuration not stated)	-2%	-24%
O=C1c2ccccc2C2(c3ccccc3)N1CCN2C(=O)C(Cl)(Cl)Cl (configuration not stated)	-18%	-25%
CCCC(=O)Nc1cc(S(=O)(=O)N2CCOCC2)ccc1N1CCCCC1	-16%	i
COc1cc(C2C(C#N)=C(N)Oc3n[nH]c(-c4cccs4)c32)cc(OC)c1O (configuration not stated)	-11%	?
O=C(CCc1ccc(S(=O)(=O)N2CCOCC2)cc1)Nc1cc(Cl)ccc1N1CCOCC1	4%	.
CC(C)CNC(=O)C1(C)CCCN1C(=O)CSc1ccccc1 (configuration not stated)	3%	38%[activator]
O=C(O)c1ccccc1-c1cn2cc(Cl)ccc2n1	-7%	-9%
CCn1cc([N+](=O)[O-])c(C(=O)Nc2ccn(Cc3ccccc3)n2)n1	-12%	i
Clc1cccc(-c2nc(-c3ccccn3)no2)c1	-17%	-19%
Cn1c2c(c(=O)n(C)c1=O)CN(CCN1CCNCC1)CN2	-7%	-14%
C1COCCNCCOCCOCCOCCN1	-13%	i
COc1cccc(NC(=O)CN(C)C(=O)CC(C)c2ccccc2)c1 (configuration not stated)	-13%	-15%
Cc1ccc(C)c(SCC(=O)NNC(=O)c2ccccc2)c1	-11%	-13%
O=C(OCCN(CCOC(=O)c1ccncc1)S(=O)(=O)c1cccs1)c1ccncc1	-14%	.
Cc1cccc(OCCCC(=O)Nc2nc3ccccc3[nH]2)c1	?	?
CC(=O)N1CCOc2ccc(S(=O)(=O)NCCc3ccc(S(N)(=O)=O)cc3)cc21	-15%[7.34 µM]	i[7.34 µM]
Cc1nn(-c2ccc(Cl)cc2Cl)c(=O)c2ccccc12	-21%	-4%
COc1ccc(Nc2nc(-c3c(C)nc4ncccn34)cs2)cc1	?	?
CN(CCc1cnn(C)c1)C(=O)CCc1nnc(CCCc2ccccc2)o1	-3%	i
CCOC(=O)C(NC(=O)Nc1ccc(C(N)=O)cc1)(c1ccccc1)C(F)(F)F (configuration not stated)	-15%	i
O=C(Nc1nc2c(s1)CCCC2)c1cc(-c2ccccc2)nc2ccccc12	-7%	-4%
c1ccc2c(c1)ncn2-c1cncnc1	0%	4%
C=CCNc1nc(NCC)nc(N2CCOCC2)n1	-13%	.
COc1ccc(S(=O)(=O)N2CCCCCC2)cc1NC(=O)Cc1ccccc1	1%	-4%
O=C(Nc1ccc2snnc2c1)Nc1cccc2ccccc12	?	?
Cc1ccc(CNC(=O)CNC(=O)c2c(C)nn(C)c2Cl)cc1	-8%	i
COc1cccc(NC(=O)N(CCC(C)C)C2CCN(C(C)C)CC2)c1	-9%	-4%
CNC(=S)Nc1cc(C(=O)N2CCCC2)ccc1N1CCCC1	-6%	-4%
O=C(Nc1nc2c(s1)CCCC2)c1cc2n(n1)C(C(F)(F)F)CC(C1CC1)N2 (configuration not stated)	-14%	.
CCOc1ccc(-n2c(SCC(=O)N3CCCc4ccccc43)nc3c([nH]c4ccccc43)c2=O)cc1	-13%	-9%
CC(=O)NNC(=O)CCC(=O)Nc1ccccc1	-14%	-6%
O=C(CCn1c(=S)[nH]c2ccccc2c1=O)NCCc1ccc(Cl)cc1	-2%	3%
COc1cc(OC)cc(C(=O)NCCN2CCOCC2)c1	-4%	-14%
Cc1ccc(N(C(=O)c2snc(C(N)=O)c2N)C(C(=O)NC2CCCC2)c2ccco2)cc1 (configuration not stated)	-23%	-15%
COc1ccc(S(=O)(=O)c2cnc3ccc(Cl)cc3c2N2CCCCC2C)cc1 (configuration not stated)	?	-16%
CCCn1nc2cc(C(=O)NCc3ccc(OC(F)(F)F)cc3)ccc2c1OCC	-26%	i

Continuation.
SMILES	Vaccinia Venus	Vaccinia mCherry
CC(C)(C)OC(=O)C[C@@H]1C/C=C\C[C@@H](CC(=O)NCCO)C(=O)N2CCC[C@H]2COC1=O	4%	-13%
CC(=N\NC(=O)c1ccccc1)/C(=N/O)C(=O)Nc1ccccc1	-1%	-28%
CSc1ccc(S(=O)(=O)NCC(=O)OCC(=O)N2CCCC2=O)cc1[N+](=O)[O-]	-16%	-15%
COc1ccc(C)cc1NC(=O)COC(=O)c1ccc(OCc2ccc(Cl)cc2Cl)c(OC)c1	0%	-13%
C=C(COC(=O)CCC(=O)O)CC1CC(O)[C@]2(C)OC3CC4OC5C[C@]6(C)O[C@]7(C)CCC8OC9C[C@]%10(C)OC%11C(C)=CC(=O)OC%11CC%10OC9C[C@@H](C)C8OC7CC6O[C@]5(C)C/C=C\C4OC3CC2O1 (some centres not stated)	-10%	i
Cc1ccc(C(=O)Nc2nc(N)n(-c3ccccc3)n2)cc1	-6%	i

Source: PubChem BioAssay
